Assay outcomes (PubChem BioAssay)
Mtb growth: M. tuberculosis H37Rv growth inhibitors, H37Rv strain (AID 1626); one-dose inhibition, % at 10 µM; IC50 in µM for titrated hits; 220,000 tested, 0.95% active; M. tuberculosis H37Rv growth inhibition; higher % means a stronger effect;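 active = confirmed in a dose series; inconclusive = inhibition above 80% but not taken into the dose series; inactive = below 80% or under 30% at every dose of the series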;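 also: bacteria incubated seven days before Alamar blue readout; 0% = bacteria only wells and 100% = bacteria with antibiotic wells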
Mtb bLac sens: beta-lactam sensitization of Mtb H37Rv; M. tuberculosis H37Rv growth with meropenem, percent inhibition; hits of this screen are not shown here; inhibition, % at 25 µM; 330,000 tested, 0.27% active; AID 434955;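 active = about 74% or more and at least 40 points above the plate without the antibiotic, then above 30% in a dose series; inconclusive = first-round hits that could not be retested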;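 also: growth measured after seven days incubation then overnight dye step; 0% = bacteria only wells and 100% = bacteria with antibiotic; twin plates without the antibiotic show which effects depend on it; some results filed as inactive read as strong as hits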
RecA splice inh: Mtb RecA intein splicing inhibition; 290,000 tested, 0.75% active; inhibition, %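 (about 9 µM by stock and volumes)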; P9WHJ3; cell-free RecA intein splicing, fluorescence; in the data active = inhibition above about 30%; inconclusive = no clear call, values can overlap the other calls;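 also: 0% = vehicle wells and 100% = reference inhibitor control wells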
Target sequence (P9WHJ3 whole entry, looked up, canonical isoform): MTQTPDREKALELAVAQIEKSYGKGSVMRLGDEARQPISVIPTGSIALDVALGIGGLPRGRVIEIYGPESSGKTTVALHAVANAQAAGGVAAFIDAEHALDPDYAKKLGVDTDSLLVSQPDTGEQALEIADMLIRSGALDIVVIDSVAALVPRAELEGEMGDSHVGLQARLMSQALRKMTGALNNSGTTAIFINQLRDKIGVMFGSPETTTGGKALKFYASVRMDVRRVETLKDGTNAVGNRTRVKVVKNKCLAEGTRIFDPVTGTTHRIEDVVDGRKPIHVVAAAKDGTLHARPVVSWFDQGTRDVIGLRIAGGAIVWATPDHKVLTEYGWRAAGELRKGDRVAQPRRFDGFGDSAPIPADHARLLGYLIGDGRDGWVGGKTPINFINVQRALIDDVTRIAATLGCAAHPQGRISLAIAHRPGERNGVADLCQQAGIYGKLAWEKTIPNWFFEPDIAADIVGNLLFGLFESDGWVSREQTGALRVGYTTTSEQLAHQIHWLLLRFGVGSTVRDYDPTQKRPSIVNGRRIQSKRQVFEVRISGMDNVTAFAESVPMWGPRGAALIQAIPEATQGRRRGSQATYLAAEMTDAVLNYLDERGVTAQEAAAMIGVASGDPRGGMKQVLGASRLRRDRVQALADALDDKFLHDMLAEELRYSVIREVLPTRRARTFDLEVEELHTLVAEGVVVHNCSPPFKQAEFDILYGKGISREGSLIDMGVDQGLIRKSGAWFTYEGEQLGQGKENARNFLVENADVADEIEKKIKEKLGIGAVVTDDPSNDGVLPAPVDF
YopH PTP inh: YopH (Yersinia) phosphatase inhibition | 140,000 tested, 0.16% active | fluorescence Ex485/Em525 | inhibition, %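 (about 10 µM by stock and volumes)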;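 active = inhibition of 50% or more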;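 also: controls were vehicle for no effect and minimum signal wells for full effect; inactives centre near -20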
Arbovirus inh: blocks arbovirus infection; arbovirus infection cell-based antiviral screen; AID 1251; 200,000 tested, 0.37% active; inhibition, % at 10 µM;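 active = inhibition from about 30%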;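 also: bluetongue infection of BSR cells; cell survival read as ATP light after 72 h; 0% = infected wells without compound and 100% = uninfected wells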
Arbovirus inh repeat: also measured in Arbovirus inh; calls as there; inhibition, %; measured here: 10K subset replicate screen; many hits read low in the repeat;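 first of two repeat runs on a subset; 0% = infected and 100% = uninfected wells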
Starred values were filed as active, the others as inactive; i = inactive; ? = inconclusive; nt = not tested or not shown. The list is partial. The share of hits here may be higher or lower than overall.

SMILES	Mtb growth	Mtb bLac sens	RecA splice inh	YopH PTP inh	Arbovirus inh	others
CCOC(=O)C1=C(C)N(C)C(C)=C(C(=O)OCC)C1c1ccc(C(=O)OC)cc1	7%	0	1.2	-19	-5
Cc1ccc(OCCN2C(=O)C(=O)c3cc(C)ccc32)cc1	-4%	-7	4.1	nt	-2
CC1(C)Cc2c(sc(NC(=O)C(=O)NCCCN3CCOCC3)c2C(N)=O)CO1	nt	1	-3.3	nt	nt
Cc1cccc(NC(=O)COC(=O)c2ccc([N+](=O)[O-])o2)c1C	-2%	70	0.8	nt	7
O=C(N/N=C/c1ccc2c(c1)OCO2)C(=O)Nc1ccc2ccccc2c1	2%	14	-0.1	nt	-6
CCOC(=O)CCNC(=O)N1CCCC(N(C)CCc2ccc(OC)c(OC)c2)C1 (stereo not drawn)	nt	5	-3.2	nt	nt
O=C(c1cc2c(=O)n3ccccc3nc2s1)N1CCc2ccccc2C1	1%	3	-31	nt	-7
CCc1ccc(NSc2ccccc2[N+](=O)[O-])cc1	8%	36	20	-21	2
Cc1cccc2c(=O)n3c(nc12)CCCCC3	3%	-2	2.9	-1	4
Cc1nc(CCNS(=O)(=O)c2cccs2)cs1	9%	1	-4.2	7	8
CCc1ccc(-c2csc(NC(=O)c3cccnc3)n2)cc1	1%	50	-0.4	-17	-6
O=C(CSc1nnnn1-c1ccccc1)Nc1nc(-c2ccccc2)ns1	-1%	1	2.1	-55	14
CCOC(CNC(=O)Cc1c(C)nc2c(-c3ccccc3)c(C)nn2c1C)OCC	-1%	-8	21	nt	-3
Cc1nn(Cc2c(F)c(F)c(F)c(F)c2F)c(C)c1NC(=O)c1nn(C)c(C)c1Br	nt	-17	1.6	nt	nt
CC1=C(C(=O)NCc2ccccc2)C(c2cccs2)n2ncnc2N1 (stereo not drawn)	-1%	-7	1.5	-23	-6

5 structures from above, arranged by length of the SMILES, ascending:
SMILES	Mtb growth	Mtb bLac sens	RecA splice inh	YopH PTP inh	Arbovirus inh	others
Cc1ccc(OCCN2C(=O)C(=O)c3cc(C)ccc32)cc1	-4%	-7	4.1	nt	-2
CC1=C(C(=O)NCc2ccccc2)C(c2cccs2)n2ncnc2N1 (stereo not drawn)	-1%	-7	1.5	-23	-6
Cc1cccc(NC(=O)COC(=O)c2ccc([N+](=O)[O-])o2)c1C	-2%	70	0.8	nt	7
CCOC(CNC(=O)Cc1c(C)nc2c(-c3ccccc3)c(C)nn2c1C)OCC	-1%	-8	21	nt	-3
CC1(C)Cc2c(sc(NC(=O)C(=O)NCCCN3CCOCC3)c2C(N)=O)CO1	nt	1	-3.3	nt	nt

(cont.)
SMILES	Mtb growth	Mtb bLac sens	RecA splice inh	YopH PTP inh	Arbovirus inh	others
COc1ccccc1/C=N/NC(=O)CC(=O)NC1CCCCC1	-4%	5	-4.0	nt	2
CC(=O)c1cccc(N(CC(=O)Nc2ccccc2C(=O)N2CCCC2)S(C)(=O)=O)c1	nt	-4	-0.6	nt	nt
COc1ccc(-n2cc(-c3ccccc3)c3c(NN4CCOCC4)ncnc32)cc1	2%	nt	6.7	nt	-3
CC(NC(=O)c1ccc(CS(C)(=O)=O)cc1)c1ccc(-n2ccnc2)cc1 (stereo not drawn)	nt	1	0.8	nt	nt
COc1cccc(C(c2c(N)n(C)c(=O)n(C)c2=O)C(C)[N+](=O)[O-])c1 (stereo not drawn)	44%	99	-0.6	nt	nt
OC(c1ccccc1)(c1ccccc1)C1CCN(C(=S)NC2CCCC2)CC1	4%	3	-3.1	nt	-9
Cc1ccc(C23CC4CC(CC(C(N)=O)(C4)C2)C3)cc1	nt	-12	-1.7	nt	nt
CCCCS(=O)(=O)Nc1ccc(N2CCOCC2)c(S(=O)(=O)N2CCOCC2)c1	nt	5	-5.0	nt	nt
NCCn1c(-c2ccccc2)cc(C(=O)O)c1-c1ccccc1F	11%	-3	1.2	-34	7
O=C(NC12CC3CC(CC(C3)C1)C2)c1ccc(COc2ccc(Cl)cc2[N+](=O)[O-])o1	6%	4	nt	-34	-19
O=C(COC(=O)c1ccc(Br)o1)Nc1cccc(S(=O)(=O)N2CCCCCC2)c1	5%	-2	8.4	12	-2
COc1ccc(CC(=O)Nc2cc(C)ccc2O)cc1OC	-8%	-8	-3.1	nt	nt
CC(Sc1nnnn1C)C(=O)NC1CCCc2ccccc21 (stereo not drawn)	-6%	-1	-4.3	nt	-6
Cn1c(SCC(=O)N2CCN(c3cccc(Cl)c3)CC2)nnc1-c1ccncc1	-18%	12	-0.8	-26	-3
CCOC(=O)c1c(C)oc2cc(Br)c(OC(C)C(=O)OCC)cc12 (stereo not drawn)	-5%	70	7.7	-38	-3	Arbovirus inh repeat=4

The final 3 compounds of the part above come first, to join the parts.
SMILES	Mtb growth	Mtb bLac sens	RecA splice inh	YopH PTP inh	Arbovirus inh	others
CC(Sc1nnnn1C)C(=O)NC1CCCc2ccccc21 (stereo not drawn)	-6%	-1	-4.3	nt	-6
Cn1c(SCC(=O)N2CCN(c3cccc(Cl)c3)CC2)nnc1-c1ccncc1	-18%	12	-0.8	-26	-3
CCOC(=O)c1c(C)oc2cc(Br)c(OC(C)C(=O)OCC)cc12 (stereo not drawn)	-5%	70	7.7	-38	-3	Arbovirus inh repeat=4
Cc1[nH]nc2c1C(C1CC=CCC1)C(C#N)=C(N)O2 (stereo not drawn)	0%	-1	nt	-90	5	Arbovirus inh repeat=-2
Cc1ccc2nc(N3CCN(c4ccccc4F)CC3)c(C=O)c(=O)n2c1	-3%	6	1.3	nt	-1
CCc1ccc(-c2cn3nc(C)c(C)nc3n2)cc1	5%	5	i	-2	3
COC(=O)CSc1nc(-c2ccccc2)nc2ccccc12	5%	-3	-6.1	nt	3
Cc1ccc2cc(CN(CC3CCCO3)C(=S)Nc3ccccc3)c(=O)[nH]c2c1 (stereo not drawn)	-1%	5	0.3	nt	-15
COc1ccc(-c2nnc(SCC(=O)NC3CCCCC3)o2)cc1	nt	-2	-12	nt	nt
CC(C)OC(=O)CSc1nc2ncccc2[nH]1	9%	-6	0.0	-27	3
Cc1ccc(C(O)CSc2nnc(-c3ccc4ccccc4c3)n2C)cc1 (stereo not drawn)	-13%	-6	3.5	nt	nt
COc1cc(CNCc2ccc(OC)c(OC)c2OC)cc(OC)c1	-6%	6	-0.5	-7	3
Cc1[nH]n(-c2ccccc2)c(=O)c1-c1ccc(Cl)cc1	3%	23	-8.7	-13	20
CC(=O)c1ccc(OC(C)C)c(Cc2c(O)nc(N)[nH]c2=O)c1	-2%	1	-2.3	-17	-9
Cc1ccc(Nc2nnc(SCC(=O)Nc3ccccc3[N+](=O)[O-])s2)cc1	6%	0	-6.8	-14	-4
Cc1ccc(-c2nc(C(=O)O)cs2)cc1	-7%	2	0.0	nt	9
CCCc1cc(C(=O)Nc2ccccc2C(=O)OC)no1	13%	-3	3.7	-13	10
Cc1ccc(C2C(C#N)=C(N)SC(N)=C2C#N)o1	-10%	1	-25	-34	-4
CCOC(=O)c1nnc(-c2cccs2)nc1Oc1ccccc1C(=O)OC	-14%	-5	10	3	13
Cc1ccc(-n2nc3c(c2NC(=O)c2ccc4c(c2)OCO4)CS(=O)(=O)C3)cc1	nt	5	-1.5	nt	nt
Cc1ccccc1CSc1nc2ccccc2c(=O)[nH]1	8%	-3	0.5	-31	-6
O=C(NNC(=S)NC(=O)c1cccs1)c1cccnc1	-10%	26	-4.2	nt	0
Cc1ccc(NC(=O)C2Cc3ccccc3CN2C(=O)c2ccccc2)cc1Cl (stereo not drawn)	21%	1	10	3	-7
CC(NC(=O)C12CC3CC(CC(O)(C3)C1)C2)c1ccccc1 (stereo not drawn)	nt	0	-2.2	nt	nt
CCN(CC)c1ccc(-n2c(C)cc(C=O)c2C)cc1	2%	-10	-2.3	-6	-6
CC(=O)O/N=C(\N)c1ccc(-c2csnn2)cc1	-11%	-5	2.0	nt	nt
Cn1c(COc2cccc3cccnc23)nnc1SCC(=O)O	4%	-5	2.3	nt	1
COc1ccc(OC)c(-n2cc3c(=O)n(C)c(=O)n(C)c3c2)c1	-2%	4	3.6	-57	-21
COc1ccccc1NC(=O)CC(NCCN(C)C)C(=O)O (stereo not drawn)	-10%	-2	0.5	6	4
COC(C[C@@H]1O[C@@H]1[C@@H](O)[C@@H](C)OCc1ccccc1)OC	-6%	nt	-0.5	nt	nt
CCNC(=O)C(=O)NCC1OCCCN1S(=O)(=O)c1ccc(F)cc1C (stereo not drawn)	nt	-9	3.1	nt	nt
COCCn1c(=O)[nH]c2cc(C(=O)NCCc3ccc(OC)c(OC)c3)ccc2c1=O	0%	0	nt	-24	4
COc1ccc(OC)c(CN2CCCC(CCC(=O)N(C)CCc3ccccn3)C2)c1 (stereo not drawn)	4%	-3	nt	nt	3
COc1ccc2oc(C)c(C(=O)Cn3ccnc3)c2c1	-2%	6	1.7	-32	-1
CC(C)c1cc2c(c(O)c1O)[C@@]13CCCC(C)(C)C1CC2OC3=O (stereo partly drawn)	nt	-6	21	nt	nt
O=C(CC1SC(=Nc2ccc3c(c2)OCCO3)NC1=O)Nc1ccc(F)cc1F (stereo not drawn)	1%	2	-2.7	nt	nt
COc1ccc2oc(C(=O)OCC(=O)N(Cc3ccccc3)C(C)C)c(C)c2c1	nt	-1	3.2	nt	nt
CCn1cc(C(=O)O)c(=O)c2cc(F)c(N3CCN(C(=S)NC(=O)c4ccc(F)cc4)CC3)cc21	16%	17	-0.7	nt	nt
O=C(O)C1CCN(C(=O)c2cccc3ccccc23)CC1	nt	-11	-0.8	nt	nt
O=C(Nc1cc2c3c(c1)CC(=O)N3CCC2)c1ccc(Cl)cc1	nt	0	8.7	nt	nt
C#Cc1ccc(CN2CCCC(C(=O)Nc3ccccc3Oc3cccnc3)C2)cc1 (stereo not drawn)	nt	0	0.3	nt	nt
COc1cccc(NC(=O)Cn2c(=O)oc3cc(S(=O)(=O)N4CCCC4)ccc32)c1	1%	-1	-12	nt	nt
CCOC(=O)c1c(NC(=O)/C=C/C(=O)O)sc(C)c1-c1ccc(C(C)(C)C)cc1	-2%	6	nt	nt	-29
CCc1ccc(NC(=O)CSc2nc(=O)n3cc(C)ccc3n2)cc1	nt	-17	-2.1	nt	nt
CCOC(=O)c1sc(=S)n(-c2ccccc2Cl)c1SC	4%	3	0.2	2	-4
C/C(=N\Nc1ccc([N+](=O)[O-])cc1)c1ccc(O)cc1	?	-1	-4.8	nt	-15
CCOC(=O)c1c(NC(=O)c2ccco2)sc(C(=O)N2CCCC2)c1C	-4%	5	1.5	-12	4
Cc1ccc2c(c1)N(S(=O)(=O)c1ccc3c(c1)NC(=O)CC(=O)N3)CCO2	nt	-4	2.4	nt	nt
CCCCN(C(=O)CCNC(=O)NC12CC3CC(CC(C3)C1)C2)c1c(N)n(CCC)c(=O)[nH]c1=O	nt	-12	-0.3	nt	nt
O=C(CCc1nc2ccccc2c(=O)[nH]1)Nc1nc(-c2cccs2)cs1	nt	-1	0.9	nt	nt
COCCn1c(=NC(=O)CSC(C)=O)sc2cc(F)ccc21	-3%	1	1.5	-22	0
CCC(NC(=O)NCc1ccccc1)(C(F)(F)F)C(F)(F)F	4%	7	0.8	-45	15
CCOC(=O)c1cnc2ccc(C(=O)OC)cc2c1Nc1ccc(C(=O)O)cc1	-3%	4	-2.0	nt	-10
Cc1sc(NC(=O)CSc2nnc(-c3ccccc3)o2)c(C#N)c1C	-2%	3	10	-36	14
Cn1c(N)c(C(=O)COC(=O)C2CCCN2C(=O)c2cccs2)c(=O)n(C)c1=O (stereo not drawn)	-2%	2	-1.1	nt	5
O=C(O)c1cc(-c2ccc(N3CCOCC3)cc2)nn1-c1ccc(F)cc1	-12%	-2	-5.4	-24	-2
O=C(c1cnn2ccccc12)N1CCN(C2CCCCC2)CC1	-2%	-6	0.3	-45	3
COc1cc(C(C(=O)NCC2CCCO2)N(C(=O)Cn2nnc3ccccc32)c2ccc(OC)c(OC)c2)ccc1O (stereo not drawn)	nt	1	-1.1	nt	nt
Cc1ccc(C(C(=O)NC2CCCC2)N(Cc2cccs2)C(=O)CNC(=O)c2cccs2)o1 (stereo not drawn)	4%	-3	-3.1	0	-1
Cn1c(SCC(=O)c2ccc3c(c2)OCCO3)nnc1C(F)(F)F	-8%	-9	-0.6	nt	nt
C[C@]12CC(=O)CC1CCC1C2CC[C@@]2(C)C1CC[C@@H]2O (stereo partly drawn)	nt	-6	-1.3	nt	nt
Cc1nnc(N/N=C/c2cccc(C(F)(F)F)c2)n1N	nt	75	1.3	nt	nt
CC(=O)OCCCNc1cc(Sc2ccc(C)cc2)c2nonc2c1[N+](=O)[O-]	14%	9	15	-26	-5
COc1cc([N+](=O)[O-])c(OC)cc1SCc1n[nH]c(=S)n1-c1ccc(C)cc1	1%	-7	2.0	nt	nt
CN(NC(=O)c1ccc(Cl)cc1)c1cccc(Cl)n1	-5%	27	0.9	-26	-5
